Screening data from PubChem BioAssay.
NOMO-1 viab: NOMO-1 AML cell viability reduction, primary screen, STK33 inhibitor project, CellTiter-Glo luminescence; hit rate 7.5% among 37,000; NOMO-1 AML viability, 72 h; inhibition, % (no concentration beside the values); AID 2330, 2010;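 active means most replicates above 80%; inconclusive means exactly half above 80%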;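 further: wells of about 30 µL received 25 nL stock; 0% = median of vehicle wells and 100% = reference inhibitor level; the first replicate is given; inactives centre near 10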
Starred values were filed as active, the others as inactive; u = inconclusive. These rows are one share of the data, so the mix of outcomes need not match the whole.

Start of the data: the first three entries, ahead of the listing:
SMILES	NOMO-1 viab
C[C@H]1CN([C@@H](C)CO)C(=O)c2cc(NC(=O)Cc3cn(C)c4ccccc34)ccc2O[C@@H]1CN(C)C	4.1
C[C@H]1CN([C@@H](C)CO)C(=O)c2cccc(NC(=O)C3CC3)c2O[C@H]1CN(C)Cc1ccc(Cl)c(Cl)c1	-1.7
COc1ccc(S(=O)(=O)Nc2ccc3c(c2)C(=O)N([C@H](C)CO)C[C@H](C)[C@H](CN(C)Cc2ccc(C(=O)Nc4ccccc4N)cc2)OCCCC[C@@H](C)O3)cc1	125.8*

Results, previewed entries included:
SMILES	NOMO-1 viab
C[C@H]1CN([C@@H](C)CO)C(=O)c2cc(NC(=O)Cc3cn(C)c4ccccc34)ccc2O[C@@H]1CN(C)C	4.1
C[C@H]1CN([C@@H](C)CO)C(=O)c2cccc(NC(=O)C3CC3)c2O[C@H]1CN(C)Cc1ccc(Cl)c(Cl)c1	-1.7
COc1ccc(S(=O)(=O)Nc2ccc3c(c2)C(=O)N([C@H](C)CO)C[C@H](C)[C@H](CN(C)Cc2ccc(C(=O)Nc4ccccc4N)cc2)OCCCC[C@@H](C)O3)cc1	125.8*
NC(=O)C1(N2CCCCC2)CCN(C(=O)CSc2nc3ccccc3[nH]2)CC1	5.7
CC(=O)c1cccc(N(CC(=O)Nc2ccc(C(F)(F)F)cc2)S(C)(=O)=O)c1	26.7
CCOC(=O)c1cnc(Nc2nc3ccccc3s2)nc1CSc1ncccn1	5.0
C[C@@H]1CCCCO[C@@H](CN(C)C(=O)CCCN(C)C)[C@@H](C)CN([C@H](C)CO)C(=O)c2cc(NC(=O)c3ccncc3)ccc2O1	23.4
COc1ccc(S(=O)(=O)N(C)C[C@@H]2OCCCC[C@@H](C)Oc3ccc(NS(=O)(=O)c4ccccc4)cc3C(=O)N([C@H](C)CO)C[C@@H]2C)cc1	30.0
N#Cc1nc(-c2ccccc2Cl)oc1NCCCN1CCOCC1	26.0
COc1ccc(CN(C)C[C@@H]2Oc3c(NC(=O)c4cc(C)nn4C)cccc3C(=O)N([C@@H](C)CO)C[C@H]2C)cc1	1.0
O=[N+]([O-])c1ccccc1-c1ccc(CN2CCN3CCCC3C2C2CCCCC2)o1 (stereo unspecified)	30.0
C[C@H](CO)N1C[C@H](C)[C@@H](CN(C)C(=O)Nc2ccccc2)Oc2c(NS(=O)(=O)c3ccc(F)cc3)cccc2C1=O	4.3
N/C(=N\S(=O)(=O)c1ccc(Cl)c(Cl)c1)c1ccccn1	22.0
C[C@H](CO)N1C[C@H](C)[C@@H](CN(C)Cc2ccc(-c3ccccc3)cc2)Oc2ccc(NC(=O)Nc3cccc4ccccc34)cc2C1=O	u
CCSC1=C(C#N)C(=O)NC(CO)S1 (stereo unspecified)	24.0
CCCN(C)C[C@@H]1OCCCC[C@@H](C)Oc2ccc(NS(=O)(=O)c3cn(C)cn3)cc2C(=O)N([C@H](C)CO)C[C@@H]1C	-10.8
C[C@@H]1CN([C@@H](C)CO)C(=O)c2cc(NS(=O)(=O)c3ccc(Cl)cc3)ccc2O[C@H]1CN(C)S(=O)(=O)c1ccc(F)cc1	-10.2
COc1ccc(NC(=O)Nc2ccc3c(c2)C(=O)N([C@H](C)CO)C[C@H](C)[C@@H](CN(C)C(=O)CCC(F)(F)F)OCCCC[C@@H](C)O3)cc1	24.1
COc1ccc(S(=O)(=O)Nc2ccc3c(c2)C(=O)N([C@@H](C)CO)C[C@H](C)[C@@H](CN(C)C)O3)cc1	20.9
C[C@H]1CN([C@@H](C)CO)C(=O)c2cccc(NC(=O)c3nc4ccccc4s3)c2O[C@H]1CN(C)C(=O)Nc1cccc2ccccc12	2.3
COC(=O)c1ccc(C(=O)OC)c(NC(=O)c2ccccc2N(C)S(C)(=O)=O)c1	50.5
COc1ccc(C(=O)c2ccccc2)cc1	-14.3
C[C@H]1CN([C@@H](C)CO)C(=O)c2cccc(NC(=O)Nc3ccc(F)cc3)c2O[C@@H]1CN(C)Cc1ccc(C(F)(F)F)cc1	56.6
COC(=O)c1ccc(COc2nc(C)cc(C)c2C#N)o1	4.6
COc1ccc(NC(=O)N(C)C[C@H]2Oc3ccc(NS(=O)(=O)c4ccc(C)cc4)cc3CC(=O)N([C@@H](C)CO)C[C@@H]2C)cc1	-0.8
Cc1cc(C(=O)Nc2cccc3c2O[C@@H](CN(C)S(=O)(=O)c2cn(C)cn2)[C@@H](C)CN([C@@H](C)CO)C3=O)n(C)n1	6.5
C[C@H](CO)N1C[C@H](C)[C@H](CN(C)C(=O)Nc2ccc3c(c2)OCO3)Oc2ccc(NC(=O)C3CCCCC3)cc2CC1=O	0.7
CC(=O)c1cccc(NC(=O)NCc2cc(C)n(C)n2)c1	17.3
CCOC(=O)c1c(CN2CCOCC2)n(-c2ccccc2)c2ccc(O)cc12	28.4
Cc1cccc(NC(=O)CSc2nnc(-c3cccnc3)n2-c2ccccc2)c1C	12.2

Among those listed so far, 4 have a Cl atom:
SMILES	NOMO-1 viab
C[C@H]1CN([C@@H](C)CO)C(=O)c2cccc(NC(=O)C3CC3)c2O[C@H]1CN(C)Cc1ccc(Cl)c(Cl)c1	-1.7
N#Cc1nc(-c2ccccc2Cl)oc1NCCCN1CCOCC1	26.0
N/C(=N\S(=O)(=O)c1ccc(Cl)c(Cl)c1)c1ccccn1	22.0
C[C@@H]1CN([C@@H](C)CO)C(=O)c2cc(NS(=O)(=O)c3ccc(Cl)cc3)ccc2O[C@H]1CN(C)S(=O)(=O)c1ccc(F)cc1	-10.2

(more compounds)
SMILES	NOMO-1 viab
C[C@@H]1CN([C@H](C)CO)C(=O)Cc2cc(NC(=O)CCC(F)(F)F)ccc2O[C@@H]1CN(C)S(=O)(=O)c1cccs1	7.1
COc1ccc(NC(=O)Nc2ccc3c(c2)CC(=O)N([C@@H](C)CO)C[C@@H](C)[C@@H](CN(C)C(=O)NC2CCCCC2)O3)cc1	4.9
COc1ccc(S(=O)(=O)Nc2ccc3c(c2)C(=O)N([C@@H](C)CO)C[C@@H](C)[C@H](CN(C)Cc2ccc(Oc4ccccc4)cc2)O3)cc1	108.0*
FC(F)(F)c1ccc(Cl)c(Nc2ncnc(-n3cccc3)n2)c1	45.2
C=CCSc1ncc(-c2ccc(Cl)cc2)n1C	42.5
Cc1noc(C)c1NC(=O)Nc1cccc2c1O[C@H](CN(C)C(=O)Nc1ccc(F)cc1)[C@@H](C)CN([C@@H](C)CO)C2=O	10.4
COc1cc(OC)c(NC(=O)COc2ccc([N+](=O)[O-])cc2)cc1Cl	-11.9
COc1cccc2cc(C(=O)Nc3cccc(Cn4cccn4)c3)c(=O)oc12	15.2
CC1CCC(C(C)C)C(=O)/C1=C/c1ccc(N)cc1 (stereo unspecified)	u
CSC1=N/C(=C\c2ccc(Cl)cc2)C(=O)N1CCc1c[nH]c2ccccc12	84.9*
S=c1[nH]nc(SCC2CC2)s1	10.9
Cc1nc(SCC(=O)N2c3ccccc3Sc3ccccc32)nc2c1CCCC2	-4.7
C[C@H]1CN([C@@H](C)CO)C(=O)Cc2cc(NC(=O)C3CCCCC3)ccc2O[C@H]1CN(C)Cc1ccc(-c2ccccc2)cc1	u
O=C(CSc1nc(O)cc(=O)[nH]1)Nc1cccc(C(F)(F)F)c1	21.5
Cc1noc(C)c1NC(=O)Nc1cccc2c1O[C@@H](CN(C)Cc1ccc(Oc3ccccc3)cc1)[C@H](C)CN([C@H](C)CO)C2=O	25.8
Cc1noc(C)c1NC(=O)N(C)C[C@@H]1Oc2ccc(NC(=O)c3ccncc3)cc2CC(=O)N([C@@H](C)CO)C[C@@H]1C	11.7
COc1ccc(NC(=O)N(C)C[C@@H]2Oc3ccc(NS(=O)(=O)c4ccc(Cl)cc4)cc3C(=O)N([C@H](C)CO)C[C@H]2C)cc1	-11.0
C[C@H](CO)N1C[C@H](C)[C@H](CN(C)Cc2ccc3c(c2)OCO3)Oc2ccc(NC(=O)Nc3ccc4c(c3)OCO4)cc2C1=O	93.4*
COc1ccc(S(=O)(=O)N(C)C[C@@H]2Oc3ccc(NC(=O)Cc4ccccc4)cc3CC(=O)N([C@H](C)CO)C[C@H]2C)cc1	-4.1
CC1C(=O)C(=O)[C@@H]2O[C@@H]2C1=O (stereo partly specified)	95.7*
O=C(c1cccc(NS(=O)(=O)c2cccc([N+](=O)[O-])c2)c1)N1CCOCC1	25.7
Cc1cc(Br)c(NC(=O)CSc2nnc(-c3ccccc3)o2)cc1C	19.2
CC/C=C/c1ccc(C)cc1/C=C/CCCC(=O)O	9.5
Cc1ccc(NC(=O)CSc2nnc(-c3ccccc3F)n2C)cc1[N+](=O)[O-]	7.6
C[C@@H]1CN([C@@H](C)CO)C(=O)Cc2cc(NC(=O)C3CC3)ccc2O[C@@H]1CN(C)Cc1ccncc1	2.2
CNC[C@@H]1Oc2ccc(NC(=O)c3ccncc3)cc2C(=O)N([C@H](C)CO)C[C@H]1C	-4.5
C[C@H](CO)N1C[C@H](C)[C@H](CN(C)S(=O)(=O)c2cn(C)cn2)Oc2c(NC(=O)c3ccc(-c4nccs4)cc3)cccc2C1=O	7.4
Cc1nnc(SCC(=O)Nc2c(C)n(C)n(-c3ccccc3)c2=O)s1	-25.3
Cc1noc(C)c1S(=O)(=O)Nc1cccc2c1O[C@@H](CN(C)C(=O)Nc1ccc(F)cc1)[C@@H](C)CN([C@H](C)CO)C2=O	23.2
O=C(CSc1nnc(-c2cccnc2)n1-c1cccc(C(F)(F)F)c1)c1ccc(F)cc1	17.1
COc1ccc(NC(=O)CNC(=O)c2ccc(OC)c(OC)c2)cc1Cl	12.8
COC(=O)c1cccc2nc3c(C(C)O)cccc3nc12 (stereo unspecified)	-13.1
Cc1ccc(S(=O)(=O)N(C)C[C@H]2Oc3ccc(NS(=O)(=O)c4cn(C)cn4)cc3C(=O)N([C@H](C)CO)C[C@@H]2C)cc1	29.8
COc1ccc(-c2oc3cc(OC)c(OC)c(O)c3c(=O)c2OC)cc1OC	23.1
C[C@@H]1CN([C@H](C)CO)C(=O)c2cc(NS(=O)(=O)c3ccc(Cl)cc3)ccc2O[C@H]1CN(C)C(=O)Nc1ccc(C(F)(F)F)cc1	8.9
Cc1cc(C(=O)Nc2cccc3c2O[C@@H](CN(C)Cc2ccc(Cl)c(Cl)c2)[C@H](C)CN([C@H](C)CO)C3=O)n(C)n1	74.4
Cc1ccccc1NC(=O)C1CC=CCC1C(=O)O (stereo unspecified)	-13.1
N=c1nc(-c2ccccc2)ccn1O	17.6
N#C/C(=C\c1ccsc1)S(=O)(=O)c1ccc(C(F)(F)F)cn1	25.5
CC1CCN(S(=O)(=O)c2cccc(C(=O)N(Cc3ccccc3)c3ccccn3)c2)CC1	51.6
FC(F)(F)c1cccc(NC(=S)Nc2cccnc2N2CCC(C(F)(F)F)CC2)c1	u
C[C@@H]1CN([C@H](C)CO)C(=O)c2cccc(NC(=O)Nc3ccccc3)c2O[C@@H]1CN(C)S(=O)(=O)c1ccccc1	12.7
C[C@H]1CN([C@@H](C)CO)C(=O)c2cccc(NC(=O)CCCCCC(=O)Nc3ccccc3N)c2O[C@H]1CN(C)C(=O)Nc1cccc2ccccc12	14.0
COc1ccc(C(=O)CSc2nnc(-c3cccc(C)c3)n2-c2ccccc2)cc1	15.6
Cc1cc(C)c(NC(=O)CN(c2ccc(Oc3ccccc3)cc2)S(C)(=O)=O)c(C)c1	-7.1
COc1ccc(C(=O)CC2(O)C(=O)N(CCCC#N)c3ccccc32)c(OC)c1 (stereo unspecified)	5.8
C[C@@H]1CCCCO[C@@H](CN(C)C(=O)C2CCCCC2)[C@@H](C)CN([C@H](C)CO)C(=O)c2cc(NC(=O)c3ccncc3)ccc2O1	-21.0
COc1ccc(OC)c(NC(=O)CCN2CCN(c3ccccc3F)CC2)c1	2.2
CC(C)(C)C(=O)CSc1nnc(-c2cnccn2)s1	-21.1
Cc1cc(C(F)F)n2nc(C(=O)Nc3c(C)nn(Cc4ccc(Cl)cc4)c3C)nc2n1	9.6
(more compounds)
SMILES	NOMO-1 viab
Cc1ccc(S(=O)(=O)Nc2ccc3c(c2)CC(=O)N([C@@H](C)CO)C[C@H](C)[C@H](CN(C)S(=O)(=O)c2ccccc2)O3)cc1	18.6
COc1ccc(CN(C)C[C@@H]2Oc3c(NS(=O)(=O)c4ccc(OC)cc4)cccc3C(=O)N([C@@H](C)CO)C[C@H]2C)cc1	-3.1
Cn1c(SCC(=O)N2CCc3ccccc32)nnc1-c1ccco1	-13.7
CC1=C(C#N)C(c2ccccc2)C(C#N)=C(C)N1	27.7
C[C@@H]1CN([C@H](C)CO)C(=O)Cc2cc(NC(=O)CCCCCC(=O)Nc3ccccc3N)ccc2O[C@@H]1CN(C)C(=O)Nc1ccccc1	-3.3
C[C@@H]1CN([C@@H](C)CO)C(=O)c2cccc(NS(C)(=O)=O)c2O[C@@H]1CN(C)S(=O)(=O)c1cccs1	7.2
Cc1cc2nnc(SCC(=O)Nc3ccc(Cl)c(C(F)(F)F)c3)n2c2ccccc12	36.5
C[C@H]1CN([C@@H](C)CO)C(=O)Cc2cc(NC(=O)Nc3ccc(F)cc3)ccc2O[C@@H]1CN(C)C(=O)Nc1ccc(C(F)(F)F)cc1	10.8
Cn1c(SCC(=O)N2CCc3ccccc32)nnc1-c1ccc(NC(=O)c2ccc(F)cc2)cc1	33.3
Cc1cc(NC(=O)CCN2CCC(C(N)=O)CC2)ccc1Br	-17.8
O=C(Oc1ccc(OC(=O)c2ccccc2)cc1)c1ccccc1	13.0
COc1ccc(S(=O)(=O)Nc2ccc3c(c2)C(=O)N([C@@H](C)CO)C[C@@H](C)[C@H](CN(C)S(=O)(=O)c2ccc(OC)cc2)O3)cc1	5.9
CC(=O)Nc1sc(C)c(-c2ccccc2)c1C(=O)NCc1cccnc1	31.1
Cc1ccc(S(=O)(=O)N(CC(=O)Nc2ccc(C(N)=O)cc2)C2CCCCC2)cc1	22.0
CC(C)NC(=O)Nc1ccc2c(c1)C(=O)N([C@H](C)CO)C[C@H](C)[C@H](CN(C)S(=O)(=O)c1cccs1)OCCCC[C@@H](C)O2	29.9
COc1ccc(CN(C)C[C@H]2Oc3ccc(NC(=O)Cn4cnnn4)cc3C(=O)N([C@@H](C)CO)C[C@@H]2C)cc1	25.0
O=C(CCCN1C(=O)c2ccccc2C1=O)Nc1ccc2ccccc2c1	-6.7
C[C@H]1CN([C@@H](C)CO)C(=O)c2cc(NC(=O)Cc3ccccc3)ccc2O[C@H]1CN(C)S(=O)(=O)c1ccc(F)cc1	12.0
